StopGo RLuc: FMDV 2A StopGo reporter, Renilla signal; Potency, µM (series often up to 57.5 µM), for inactives: at the highest dose signal change, negative = less light; HEK cells with a luciferase reporter of 2A StopGo recoding; 120,000 compounds, 0.32% hits; AID 1745857; active means well fitted falling curve with a large enough effect; inconclusive means small, poorly fitted or top-dose-only effect; inactive means no such curve, though single readings can be large or run the other way; further: nearly all actives have a fitted effect of over 55% in size; overnight with compound
StopGo FLuc: lowers the firefly signal of an FMDV 2A StopGo reporter. HEK cells with a luciferase reporter of 2A StopGo recoding. Potency, µM (titrated, usually from 57.5 µM), for inactives: at the highest dose signal change, negative = less light. AID 1745856. 120,000 compounds, 0.23% hits; active = well fitted falling curve with a large enough effect; inconclusive = small, poorly fitted or top-dose-only effect; inactive = no such curve, though single readings can be large or run the other way; further: nearly all actives have a fitted effect of over 60% in size; overnight with compound
Starred values were filed as active, the others as inactive; ? = inconclusive; & = joins results of further samples; [ ] = remark or other dose. On the % scale 0 is the no-effect control and ±100 the full control effect; potency means the concentration at half of the fitted maximal effect.

nr | SMILES | StopGo RLuc | StopGo FLuc
1 | CCCN(CCC)C(=O)Cn1c(=O)n(Cc2ccc(C(=O)NCCc3ccc(Cl)cc3)cc2)c(=O)c2ccccc21 | -17% | -20%
2 | CSc1ncc(Cl)c(C(=O)NCc2ccc(C)cc2)n1 | 0% | -10%
3 | O=C(NCCc1ccc(F)cc1)C(=O)NCC(c1cccs1)S(=O)(=O)c1cccs1 (stereo not given) | ? | ?
4 | COc1ccccc1Nc1nn2c(=O)c3ccc(C(=O)NC4CCCCC4)cc3nc2s1 | 21% | 48%[activator]
5 | COc1ccc(OCc2nc3c4c(-c5ccc(OC)cc5)c(-c5ccc(OC)cc5)oc4ncn3n2)cc1 | -7% | -5%
6 | CCOc1ccc(S(=O)(=O)Nc2cc3c(C(=O)OC)c(COC)oc3c3ccccc23)cc1 | 59%&40%[activator] | 0%&23%
7 | S=C(NCCNc1c(Cl)c(Cl)c(Cl)c(Cl)c1Cl)Nc1ccccc1 | 2% | -29%
8 | CC(Nc1ccc([N+](=O)[O-])cn1)c1nc2ccccc2n1C(F)F (stereo not given) | ? | -19%
9 | CCc1ccc2cc(C(=O)O)[nH]c2c1 | 22% | 60%[activator]
10 | Cc1ccc(C)n1-c1c(C(=O)N2CCC(C)CC2)sc2ncccc12 | 68%[activator] | 97%[activator]
11 | O=C(NCc1cccs1)c1ccc2c(=O)n3nc(Nc4ccccc4)sc3nc2c1 | 21% | 1%
12 | Cc1ccc(OCC(=O)NCC(c2ccc(Cl)cc2)N2CCCCC2)cc1 (stereo not given) | 32% | 14%
13 | CC(C)c1nnc(NC(=O)CCc2ncc(-c3ccccc3)o2)s1 | -9% | -3%
14 | CN(C)c1ccc(C(CNS(=O)(=O)c2ccc(F)cc2)N2CCOCC2)cc1 (stereo not given) | 14% | 12%
15 | C=C(C)CN1CCN(Cc2ccc(OC)cc2)CC1 | -2% | 16%
16 | CC(C)NC(=S)N/N=C/c1ccccc1Br | -2% | 10%
17 | Cc1nnc(SCc2ccccc2Cl)c2cc3occc3n12 | 1% | 103%[activator]
18 | O=C(CC1CC2CCC1C2)NCc1cccc(Cl)c1 (stereo not given) | -3%[1.06 µM] | 0%
19 | O=C(CCc1ccccc1)OCC(=O)c1ccc2c(c1)OCCCO2 | 4% | 22%
20 | CCCCN(C)C(=O)Cn1c(C2CC(=O)N(c3ccc(CC)cc3)C2)nc2ccccc21 (stereo not given) | 28% | 55%[activator]

Single records (already shown):
O=C(CCc1ccccc1)OCC(=O)c1ccc2c(c1)OCCCO2 is entered as StopGo RLuc = 4%; StopGo FLuc = 22%
Cc1nnc(SCc2ccccc2Cl)c2cc3occc3n12 is entered as StopGo RLuc = 1%; StopGo FLuc = 103%[activator]

Other compounds follow.
nr | SMILES | StopGo RLuc | StopGo FLuc
21 | CCOc1ccc2oc(=O)cc(CN3CCN(c4ccc(Cl)cc4)CC3)c2c1 | 2% | -18%
22 | Cc1ccc(CCNC(=O)c2cc3cc4cc(C)ccc4nc3s2)cc1 | -3% | 61%[activator]
23 | COc1ccc(CCn2c3c(c(=O)[nH]c2=O)C(NC(=O)c2ccccc2OC)(C(F)(F)F)C(=O)N3)cc1OC (stereo not given) | -11% | -18%
24 | COCc1ccccc1CNC(=O)NCc1coc(-c2cccs2)n1 | 1% | -8%
25 | CC1CCN(c2nnc(-n3cccc3CN3CCN(C4CCCCC4)CC3)s2)CC1 | 4% | 75%[activator]
26 | COc1ccccc1-c1nc2c3c(-c4ccccc4)c(-c4ccccc4)oc3ncn2n1 | 2% | 3%
27 | C[C@@H]1OCN(C)[C@H]2C[C@H]3c4[nH]c5cccc(-c6ccc7c(c6)OCO7)c5c4CCN3C[C@@H]12 | -5% | -12%
28 | Cc1ccc(S(=O)(=O)C(CNC(=O)COc2ccccc2)c2ccco2)cc1 (stereo not given) | 4% | -23%
29 | CCC(CNC(=O)c1cc2ccccc2oc1=O)c1ccccc1 (stereo not given) | -5% | 25%
30 | Cc1ccc(Cn2ncc3c2NC(=O)CC32C(=O)N(C)c3c(Cl)cccc32)cc1 (stereo not given) | -20% | -28%
31 | CN(C)C(CNC(=S)NCCc1ccccc1)c1cccs1 (stereo not given) | 71%[activator] | 137%[activator]
32 | Cc1cc2ccccc2n1-c1ccc(C(=O)N2CCC(C(=O)NCc3ccc(F)cc3)CC2)s1 | ? | -15%
33 | CCCCSCCCNC(=O)c1cn(C)c2ccc(S(=O)(=O)N3CCCCC3)cc2c1=O | -9% | -4%
34 | CCN(C(=O)C(=O)c1c(C)[nH]c2ccccc12)c1ccccc1 | 12% | 0%
35 | CCc1ccc2nc(N(Cc3cccnc3)C(C)=O)sc2c1 | -14% | 103%[activator]
36 | CCC(C)NC(=O)Cc1ccc(NC(=O)N2CCCCc3ccccc32)cc1 (stereo not given) | -10% | 1%
37 | COC(=O)[C@@]1(C)CC[C@]2(C)CC[C@]3(C)C(=CC(=O)C4[C@@]5(C)CCC(=O)C(C)(C)C5CC[C@]43C)[C@@H]2C1 (stereo not given in full) | 10% | 2%
38 | CC(C)(C)NC(=O)COC(=O)c1n[nH]c(=O)c2ccccc12 | -2% | 1%
39 | Cc1oc(-c2ccccc2)nc1CC(=O)NCCc1ccccc1 | 3% | 29%
40 | COc1ccccc1NC(=O)Cn1cc(S(=O)(=O)Cc2ccccc2)c2ccccc21 | 20% | -4%
41 | CCOc1ccc(C(=O)Nc2ccc(N3CCCC3)nc2)cc1OC | 3% | 31%[activator]
42 | O=C(C[N+]1(CC#Cc2ccccc2)CCOCC1)c1ccccc1 | 10% | 7%
43 | CCOC(=O)C1CCN([C@H]2CS(=O)(=O)C[C@@H]2S(=O)(=O)c2ccc(Cl)cc2)CC1 | 0% | 7%
44 | Cc1ccc(-c2nc3scc(CCNC(=O)c4cccc(Br)c4)n3n2)cc1 | -6% | -16%
45 | c1ccc(Nc2c(-c3c[nH]c4ccccc34)nc3ccccn23)cc1 | 8% | 113%[activator]
46 | COc1ccc(C2CC(c3c(O)n(C4CCCCC4)c(=O)[nH]c3=O)=Nc3ccccc3S2)cc1 (stereo not given) | -10% | 23%
47 | CC(C)NC(=O)NC(=O)COC(=O)c1ccc2ccccc2n1 | -14% | 3%
48 | Cc1ccc(Cl)cc1-n1ncc2c(NCCC3=CCCCC3)ncnc21 | -29% | 0%
49 | O=C(CCc1ncc(-c2ccc(F)cc2)o1)NCC(c1ccccc1)N1CCCC1 (stereo not given) | -18% | 49%[activator]
50 | CC(C)C[C@@H](CO)NC(=O)[C@H](NC(=O)C(c1ccccc1)c1ccccc1)c1ccccc1 | 9% | -11%
51 | O=C1CC(c2ccc(C(F)(F)F)cc2)c2sc(C(=O)O)c(-c3ccccc3)c2N1 (stereo not given) | -9% | -11%
52 | Cc1ccc(NC(=O)C(Sc2nnnn2C2CC2)c2ccccc2)cc1 (stereo not given) | 44%[activator] | 17%
53 | CC(C)NC(=O)Cn1cccc1-c1nc(-c2ccc(Cl)cc2)no1 | -4% | 18%
54 | CCOc1ccc(CNC(=O)C2CCN(C3=NS(=O)(=O)C(c4ccc(C)cc4)=C3CC)CC2)cc1 | 6% | 6%
55 | COc1ccc(-c2cc3ccc(O)c(CN4CCOCC4)c3oc2=O)cc1OC | -7% | 19%
56 | CCn1cc(S(=O)(=O)c2cc(C)cc(C)c2)c(=O)c2cc(F)c(N3CCCC3)cc21 | 9% | -14%
57 | Cc1c(Cl)cccc1NC(=O)CC1Oc2ccccc2NC1=O (stereo not given) | -16% | -14%
58 | COc1ccc(S(=O)(=O)NCC(c2ccco2)N2CCN(c3ccccc3F)CC2)cc1C (stereo not given) | 57%[activator] | -10%
59 | COc1ccc2c(CNC3CCCCCC3)c(C(=O)O)n(Cc3cccc(F)c3)c2c1 | -1% | -19%
60 | CCCCN1C(C(=O)c2ccccc2)=C(OC(=O)c2ccco2)c2ccccc2S1(=O)=O | -13% | ?

Reprinted at random: 4 entries already listed
nr | SMILES | StopGo RLuc | StopGo FLuc
25 | CC1CCN(c2nnc(-n3cccc3CN3CCN(C4CCCCC4)CC3)s2)CC1 | 4% | 75%[activator]
23 | COc1ccc(CCn2c3c(c(=O)[nH]c2=O)C(NC(=O)c2ccccc2OC)(C(F)(F)F)C(=O)N3)cc1OC (stereo not given) | -11% | -18%
42 | O=C(C[N+]1(CC#Cc2ccccc2)CCOCC1)c1ccccc1 | 10% | 7%
49 | O=C(CCc1ncc(-c2ccc(F)cc2)o1)NCC(c1ccccc1)N1CCCC1 (stereo not given) | -18% | 49%[activator]

Additional entries
nr | SMILES | StopGo RLuc | StopGo FLuc
61 | C=CC(C)n1c(Br)nc2c1c(=O)[nH]c(=O)n2C (stereo not given) | -4% | -4%
62 | Cc1cc2ccccc2n1CC(=O)NCCN1CCCC1 | -16% | -10%
63 | Cc1ccc(C(=O)N(Cc2cccs2)c2ccccn2)cc1 | 91%[activator] | -10%
64 | CCc1ccccc1NC(=O)CC1NCCNC1=O (stereo not given) | -9% | 12%
65 | CC(NC(=O)c1ccc(SC(F)(F)F)cc1)c1ccccn1 (stereo not given) | 23% | 56%[activator]
66 | COc1cccc(NC(=O)CN2C=NS(=O)(=O)c3ccccc32)c1 | 15% | 17%
67 | CC(=O)Nc1ccc(NC(=O)C(C)On2nnc3ccc(Cl)cc32)cc1 (stereo not given) | -15% | -4%
68 | COc1cccc(/C=C/c2nc(C#N)c(NCc3ccc4c(c3)OCO4)o2)c1 | 54%[activator] | 72%[activator]
69 | COc1cc(NC(=O)C2CCN(S(=O)(=O)c3ccc4c(c3)oc(=O)n4C)CC2)cc(OC)c1 | -4% | -14%
70 | O=C1NC2(C(=O)Nc3cccc(Br)c3)CCC(=O)N2c2ccccc21 (stereo not given) | 177%[activator] | 138%[activator]
71 | O=c1c2sccc2ncn1Cc1coc(-c2ccccc2Cl)n1 | 18% | 206%[activator]
72 | CCc1cccc(CC)c1NC(=O)c1ccc(CSc2ccc(C)cc2)cc1 | 1% | 2%
73 | CCOc1ccc(/C=C(\C#N)c2nc(-c3cc4ccccc4oc3=O)cs2)c(OCC)c1 | -5% | 25%
74 | CCNC(=S)NNC(=S)NCC1CCCO1 (stereo not given) | 5% | -3%
75 | CCN(CCCNC(=O)CSc1cc(=O)n(C)c2cc(Cl)ccc12)c1cccc(C)c1 | 15% | 0%
76 | O=C1CCc2cc(C(=O)OC3CCOC3=O)ccc2N1 (stereo not given) | -1%[1.06 µM] | 16%
77 | CCOC(=O)c1c(C)[nH]c(CCC(=O)NCCCN2CCN(c3cc(Cl)ccc3C)CC2)c1C | ? | 0%
78 | COc1ccc2oc(=O)cc(CN3CCN(c4ccc(F)cc4)CC3)c2c1 | -19% | -16%
79 | CCOC(=O)c1c(-c2ccccc2)oc2ccc(N(C(C)=O)S(=O)(=O)c3ccccc3)cc12 | 9% | -3%
80 | CCn1cc2nc(SCc3ccc(F)cc3)n(CCc3ccccc3)c(=O)c2n1 | -20% | 0%
81 | CC(=O)c1c(C)[nH]c(C(=O)Cn2cnc3ccccc3c2=O)c1C | -6% | 45%[activator]
82 | COc1cc(CNC(=O)c2c(C)noc2C(C)C)ccn1 | -11% | -2%
83 | COc1ccc(Nc2cc(C)nc3nc(-c4ccc(C)cc4)nn23)c(OC)c1 | -2% | 17%
84 | CCCCn1nnc(NC(=O)COc2cccc(C)c2)n1 | 1% | 17%
85 | O=C(NC1Cc2ccccc2C1)c1cccs1 | 6% | 109%[activator]
86 | Brc1cccc(CNCCCn2ccnc2)c1 | -3% | 4%
87 | N#CC1c2ccccc2-n2nncc2CN1C(=O)c1cccnc1 (stereo not given) | 5% | 7%
88 | COc1ccc(N(Cc2cc3ccccc3[nH]c2=O)C(=O)c2cccc(Cl)c2)cc1 | -2% | -5%
89 | Cc1nc2c(cnn2C(C)C)cc1C(=O)N(C)Cc1ccc(Cl)c(Cl)c1 | -4% | -23%
90 | O=C1C(c2ccccc2)=S=C2c3ccccc3-c3ccccc3N12 | 1% | 6%
91 | COc1cc(-c2nc(Cn3nnc(C(=O)Nc4ccccc4)c3C)c(C)o2)cc(OC)c1OC | 53%[activator] | 42%[activator]
92 | Cc1cccc(N(C)C(=S)Oc2ccc3ccccc3c2)c1 | 6% | -8%[11.5 µM]
93 | CC1CCc2c(sc3ncnc(OCC(=O)NC(=O)Nc4ccc5c(c4)OCCO5)c23)C1 (stereo not given) | -8% | 109%[activator]
94 | COc1cc(Nc2nc(SCC(=O)c3ccc(Cl)c(Cl)c3)nc3ccccc23)cc(OC)c1 | -4% | -3%
95 | CCOc1ccccc1CNC(=O)c1cnc2sc(N3CCOCC3)nn2c1=O | 0% | -10%
96 | COc1ccc(-n2nc3ccc(NC(=O)COc4ccc(C)c(C)c4)cc3n2)cc1 | -9% | 5%
97 | CCOC(=O)c1ccc(N2CCN(c3cc(Cl)ccc3C)CC2)c(NC(=O)Nc2cccc(OC)c2)c1 | 0% | 1%
98 | CCOC(=O)C1CCCN(c2nc3c(S(=O)(=O)c4ccc(CC)cc4)nnn3c3ccc(Cl)cc23)C1 (stereo not given) | 3% | -1%
99 | COC(=O)c1nc2ccccc2nc1NCCc1ccc(C)cc1 | 6% | 2%
100 | O=C(c1cccc(Cl)c1)N(Cc1ccco1)c1ccccc1 | 0% | 44%[activator]
101 | COc1ccc(Cn2c(CO)cnc2SCc2cccc(C)c2)cc1 | -18% | 36%[activator]
102 | CCCCC1CCC(C(=O)NNC(=O)c2ccc(Br)cc2)CC1 (stereo not given) | -24% | -1%
103 | COc1ccc(CCNS(=O)(=O)c2cc(-c3cc(C)no3)ccc2C)cc1OC | 215%[activator] | -6%
104 | O=C(NCC1CCCO1)c1ccc(Cn2c(SCc3ccc(F)cc3)nc3cccnc32)cc1 (stereo not given) | -18% | 115%[activator]
105 | O=C(Nc1ccccc1)c1ccccc1OCc1ccccc1 | 6% | 22%

Assay outcomes (PubChem BioAssay)

Some of the compounds tested (hit frequency here may not be typical).
